Fam108B counter – blocks mouse Fam108B hydrolase in RBBP9 counter-screen. recombinant Fam108B, FP-Rh probe fluorescence polarization. inhibition, % at 9.51 µM. actives 0.33% (n = 300,000);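 active = inhibition above the screen mean inhibition plus 3 SD, computed separately per campaign, cut at about 18% in these data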;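 also: inhibitors lower polarization as less probe binds the enzyme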
VLA-4 inh – inhibition in a human VLA-4 binding assay; P13612; VLA-4 expressing cells, ligand binding flow cytometry; inhibition, % (about 7 µM as worked out from the volumes in the protocol); actives 0.2% (n = 330,000); AID 2557; in the data active = inhibition above about 50%
GLD-1 RNA inh – GLD-1-TGE RNA interaction inhibition (C. elegans); purified GLD-1 + fluorescein TGE RNA, fluorescence polarization; actives 0.44% (n = 320,000); inhibition, % at 5.96 µM;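 active = percent inhibition above a per-plate cutoff, the plate mean of test compounds plus 3 SD, cut at about 30% in these data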;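 also: 0% = DMSO wells with GLD-1 and probe and 100% = wells lacking GLD-1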
GRK2 inh – human GRK2 inhibition via aptamer displacement; AID 488847; P25098; actives 0.59% (n = 330,000); bead flow cytometry, FAM-aptamer displacement from GRK2; inhibition of aptamer binding, % at 10 µM;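 active = inhibition of aptamer binding above 40%, roughly 3 SD of noise, on plates passing a quality check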;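 also: median bead fluorescence of bound FAM aptamer so fluorescent compounds give negative values; no value below 0 was filed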
Target sequence (P25098 whole entry, looked up): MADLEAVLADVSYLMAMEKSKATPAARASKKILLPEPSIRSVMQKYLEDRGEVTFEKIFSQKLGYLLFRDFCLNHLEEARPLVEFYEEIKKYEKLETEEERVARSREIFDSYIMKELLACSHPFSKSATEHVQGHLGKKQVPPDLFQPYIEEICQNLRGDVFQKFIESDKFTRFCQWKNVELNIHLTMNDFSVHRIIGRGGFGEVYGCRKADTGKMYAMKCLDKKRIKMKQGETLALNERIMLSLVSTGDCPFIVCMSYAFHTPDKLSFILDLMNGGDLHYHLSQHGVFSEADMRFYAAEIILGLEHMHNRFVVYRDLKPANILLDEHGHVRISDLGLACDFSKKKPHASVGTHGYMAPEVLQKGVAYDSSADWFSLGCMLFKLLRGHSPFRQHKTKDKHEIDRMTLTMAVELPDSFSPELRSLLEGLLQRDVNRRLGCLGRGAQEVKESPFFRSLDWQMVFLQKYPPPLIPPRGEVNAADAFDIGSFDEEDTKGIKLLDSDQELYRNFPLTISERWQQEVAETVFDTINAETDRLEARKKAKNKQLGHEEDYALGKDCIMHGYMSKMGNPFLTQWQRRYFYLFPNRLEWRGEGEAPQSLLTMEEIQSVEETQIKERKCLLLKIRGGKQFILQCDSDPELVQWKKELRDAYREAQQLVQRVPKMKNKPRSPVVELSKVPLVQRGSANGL
Efflux pump inh – blocks antifungal efflux pumps in multiplex yeast assay; actives 0.44% (n = 330,000); S. cerevisiae Candida pump triplex, Nile Red efflux; inhibition, % at 10 µM;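 active = plate passing quality check with inhibition over a set limit, or well fluorescence over plate mean plus 4 SD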;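 also: Nile Red retained in pooled yeast measured as flow cytometry median fluorescence; 0% = buffer negative control and 100% = Enniatin B positive control; higher means more Nile Red kept so more efflux inhibition; some compounds called inactive have numbers as strong as hits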
MEX-5 binding – C. elegans MEX-5 TCR-2 RNA binding activity; Q9XUB2; MEX-5/FITC-TCR2 RNA binding, fluorescence polarization; hits give low values; activity score (negative = inhibition of binding), % at 10 µM; actives 0.38% (n = 300,000); AID 1832;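 active = inhibition past about -25% in most replicates, and total fluorescence under double the plate's negative control median, limit read from the data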;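 also: 0% = DMSO and -100% = 5 µM competing unlabeled TCR2 RNA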
The depositor's hits bear a star; · = not tested or not shown.

1) C/C(CC(=O)NC1CCCCC1)=N\NC(=O)COc1ccc(C)cc1Br
2) Fc1cccc(Cl)c1CSc1ncn[nH]1
3) O=C(Nc1ccc2oc(=O)ccc2c1)c1cccnc1Cl
4) CC(=O)c1ccc(NC(=O)CSc2nnc(-c3ccoc3C)n2Cc2ccccc2)cc1
5) COC(=O)C1=NN(c2cccc(C)c2)C2C(=O)N(c3ccccc3OC)C(=O)C12 (stereo not drawn)
6) CCOC(=O)C1=NN(c2ccccc2)C2C(=O)N(c3ccccc3OC)C(=O)C12 (stereo not drawn)
Compound	1	2	3	4	5	6
Fam108B counter	-2	0	1	-1	1	-1
VLA-4 inh	13	-4	3	8	13	8
GLD-1 RNA inh	-1	7	-4	5	-1	-4
GRK2 inh	6	0	0	2	2	4
Efflux pump inh	0.3	-0.2	-0.3	0.1	0.0	-0.1
MEX-5 binding	-1.5	-1.1	-1.0	-0.9	2.5	-2.0

7) CCOC(=O)c1c(-c2ccccc2)nnn1-c1nc(OCC)nc(N2CCCCC2)n1
8) O=C(Nc1ccc2oc(=O)ccc2c1)c1ccco1
9) COc1ccc(CN2CCNC(=O)C2CC(=O)NCCC2=CCCCC2)cc1OC (stereo not drawn)
10) COc1cccc(OCC(=O)NNC(=O)c2ccc(-c3ccccc3)cc2)c1
11) CCOC(=O)c1sc(Nc2nc3c(F)cccc3s2)cc1C
12) CCn1c(Cc2ccccc2)nnc1SCC(=O)Nc1ccccc1
Compound	7	8	9	10	11	12
Fam108B counter	-1	-1	2	-6	0	2
VLA-4 inh	-18	45	-17	-7	10	0
GLD-1 RNA inh	1	-5	12	8	4	5
GRK2 inh	0	4	0	0	0	23
Efflux pump inh	0.0	0.1	0.4	0.1	0.1	0.0
MEX-5 binding	0.6	-0.5	-1.9	0.4	1.2	3.1

13) N#CC(c1ccccc1)(c1ncc(C(F)(F)F)cc1Cl)N1CCOCC1 (stereo not drawn)
14) CC1=C(C(=O)OCc2ccccc2)C(c2cccnc2)n2nnnc2N1 (stereo not drawn)
15) CC(Cc1ccccc1)C(=O)N1CCN(C)CC1 (stereo not drawn)
16) N#Cc1cn(CC(=O)N2CCCC2)c2ccccc12
17) CC(NS(=O)(=O)c1ccc([N+](=O)[O-])cc1)C(=O)NN (stereo not drawn)
18) C/C(=N\NC(=O)c1cccnc1)c1c(O)cc(C)oc1=O
Compound	13	14	15	16	17	18
Fam108B counter	1	0	-4	6	4	1
VLA-4 inh	3	19	·	14	12	7
GLD-1 RNA inh	-2	-3	-10	7	3	6
GRK2 inh	0	0	·	0	5	0
Efflux pump inh	0.1	0.0	·	0.0	0.0	-0.3
MEX-5 binding	1.3	-2.4	0.7	0.6	-3.4	-1.7

Retrieved one by one from the entries so far, two records:
6) CCOC(=O)C1=NN(c2ccccc2)C2C(=O)N(c3ccccc3OC)C(=O)C12 (stereo not drawn)
9) COc1ccc(CN2CCNC(=O)C2CC(=O)NCCC2=CCCCC2)cc1OC (stereo not drawn)
Compound	6	9
Fam108B counter	-1	2
VLA-4 inh	8	-17
GLD-1 RNA inh	-4	12
GRK2 inh	4	0
Efflux pump inh	-0.1	0.4
MEX-5 binding	-2.0	-1.9

More results
19) C/C=C/C=C/C(=O)OCC(=O)Nc1ccc(Cl)cc1
20) Cc1ccccc1NC(=O)C1CC(Cl)=CCC1C(=O)O (stereo not drawn)
21) C/C(=N\NC(=O)c1ccc(NS(=O)(=O)c2cccs2)cc1)c1ccc2ccccc2c1
22) C=CC[C@@H]1Cc2c(Br)ccc(Br)c2[C@@H](CC=C)N1
23) CC1=C(C(=O)Nc2ccccc2)C(c2ccncc2)n2nnnc2N1 (stereo not drawn)
24) COc1ccccc1N1C(=O)C2C(C(=O)c3ccccc3)=NN(c3ccccc3OC)C2C1=O (stereo not drawn)
Compound	19	20	21	22	23	24
Fam108B counter	-2	1	7	1	2	5
VLA-4 inh	15	-4	15	-3	7	0
GLD-1 RNA inh	0	5	1	1	-3	1
GRK2 inh	0	3	5	7	5	4
Efflux pump inh	0.2	0.1	-0.1	1.3	0.1	0.1
MEX-5 binding	0.6	-0.2	-0.1	1.3	-0.3	-9.7

25) Cc1ccc(OCCn2c(C3CC(=O)N(Cc4ccccc4)C3)nc3ccccc32)cc1 (stereo not drawn)
26) Cc1ccc(OCc2nnc(SCC(=O)Nc3cc(C)on3)n2C)cc1
27) COc1ccc2cc([C@H](C)C(=O)O)ccc2c1
28) C/C(=N\NC(=O)c1ccccc1O)c1c(O)cc(C)oc1=O
29) CCCCOc1ccccc1-c1cc(C(=O)O)[nH]n1
30) CN1c2ccccc2Oc2c(c(=O)n(C)c(=O)n2C)C1c1cccc([N+](=O)[O-])c1 (stereo not drawn)
Compound	25	26	27	28	29	30
Fam108B counter	4	-5	0	-2	0	-5
VLA-4 inh	-17	2	-1	-3	11	-11
GLD-1 RNA inh	3	7	1	-2	0	0
GRK2 inh	0	1	1	15	0	0
Efflux pump inh	0.0	-0.1	-0.1	0.9	-0.1	0.0
MEX-5 binding	-0.3	0.9	-1.0	-3.9	1.5	0.5

31) O=S(=O)(Cc1ccccc1Cl)c1ncn[nH]1
32) O=C(O)c1cc(-c2ccccc2Cl)n[nH]1
33) COc1ccc(OCC(=O)Nc2cccc(OC)c2)cc1
34) CCC(NS(=O)(=O)c1c(C)[nH]c(=O)[nH]c1=O)C12CC3CC(CC(C3)C1)C2 (stereo not drawn)
35) Cc1cc(C)c(S(=O)(=O)Nc2cccc(/C=C/C(=O)O)c2)c(C)c1
36) C=CCn1c(COc2ccc(Cl)cc2)nnc1SCC(=O)Nc1ccc(S(N)(=O)=O)cc1
Compound	31	32	33	34	35	36
Fam108B counter	3	1	-2	0	0	1
VLA-4 inh	5	6	7	6	-8	17
GLD-1 RNA inh	-1	-7	13	7	10	0
GRK2 inh	1	20	3	2	3	3
Efflux pump inh	0.0	-0.1	-0.1	0.1	0.0	0.2
MEX-5 binding	0.6	1.3	1.6	0.6	1.3	1.7

37) CC(C)[C@H](Nc1ccc(S(=O)(=O)N2CCOCC2)cc1[N+](=O)[O-])C(=O)OCC(=O)N(C(C)C)C(C)C
38) CC1=C(C(=O)Nc2ccccc2)C(c2cccs2)n2nnnc2N1 (stereo not drawn)
39) CCOc1cccc2sc(Nc3nc4ccc(NC(C)=O)cc4s3)nc12
40) CC(C)(C)NC(=O)CSc1nc(O)cc(=O)[nH]1
41) Cc1sc(NC(=O)C2CC(Cl)=CCC2C(=O)O)c(C#N)c1C (stereo not drawn)
42) CC(C(=O)NC(C)(C)C)N(Cc1cccs1)C(=O)CCN1CCc2ccccc21 (stereo not drawn)
Compound	37	38	39	40	41	42
Fam108B counter	5	-1	6	-2	4	5
VLA-4 inh	-10	-2	12	16	17	7
GLD-1 RNA inh	4	8	8	0	-5	6
GRK2 inh	1	1	0	0	0	0
Efflux pump inh	-0.1	-0.1	0.0	-0.1	0.3	0.0
MEX-5 binding	1.6	-0.6	1.7	1.0	-0.5	1.1

43) COc1ccc(OC)c(-n2c(-c3cc(-c4ccccc4)n[nH]3)n[nH]c2=S)c1
44) O=C(/C=C/NNC(=O)c1ccccc1)c1ccc([N+](=O)[O-])cc1
45) COc1ccccc1NC(=O)CN1CCC(n2c(C)nc3cc(F)ccc32)CC1
46) Cc1nn(-c2ccccc2)c2[nH]c(=O)c(CNCCN3CCOCC3)cc12
47) CCC(=O)NS(=O)(=O)c1cccnc1Nc1ccccc1Cl
48) CCOc1ccc(NC(=O)c2cnsn2)cc1
Compound	43	44	45	46	47	48
Fam108B counter	1	10	-2	-1	-1	1
VLA-4 inh	17	-1	0	-4	15	0
GLD-1 RNA inh	-4	0	-2	7	0	-7
GRK2 inh	4	4	0	1	0	2
Efflux pump inh	-0.3	0.3	0.5	-0.1	-0.1	-0.2
MEX-5 binding	0.1	1.3	·	-0.2	0.1	·

49) COc1ccc(C2NC(c3ccc(OC)c(OC)c3OC)C(C)C(=O)C2C)c(OC)c1OC (stereo not drawn)
50) CCCCCCCC(=O)N/N=C(/C)c1c(O)cc(C)oc1=O
51) O=C(NCc1ccco1)C1(S(=O)(=O)c2ccc(Cl)cc2)CC1
52) COC(=O)c1ccc(OC(=O)c2nn(C)cc2Cl)c(OC)c1
53) O=C(/C=C/c1cn(-c2ccccc2)nc1-c1cccs1)NCCN1CCOCC1
54) N/C(=N\OC(=O)c1ccco1)c1cccc(Br)c1
Compound	49	50	51	52	53	54
Fam108B counter	-1	-5	0	-7	-2	-2
VLA-4 inh	9	4	8	0	20	-1
GLD-1 RNA inh	-10	-4	4	-4	0	6
GRK2 inh	0	1	2	0	0	1
Efflux pump inh	0.1	0.6	0.1	0.2	-0.1	-0.1
MEX-5 binding	-0.3	2.0	-9.1	0.2	-3.3	-0.5

Structural class, the compounds so far containing an NH in an aromatic ring (eight)
2) Fc1cccc(Cl)c1CSc1ncn[nH]1
29) CCCCOc1ccccc1-c1cc(C(=O)O)[nH]n1
31) O=S(=O)(Cc1ccccc1Cl)c1ncn[nH]1
32) O=C(O)c1cc(-c2ccccc2Cl)n[nH]1
34) CCC(NS(=O)(=O)c1c(C)[nH]c(=O)[nH]c1=O)C12CC3CC(CC(C3)C1)C2 (stereo not drawn)
40) CC(C)(C)NC(=O)CSc1nc(O)cc(=O)[nH]1
43) COc1ccc(OC)c(-n2c(-c3cc(-c4ccccc4)n[nH]3)n[nH]c2=S)c1
46) Cc1nn(-c2ccccc2)c2[nH]c(=O)c(CNCCN3CCOCC3)cc12
Compound	2	29	31	32	34	40	43	46
Fam108B counter	0	0	3	1	0	-2	1	-1
VLA-4 inh	-4	11	5	6	6	16	17	-4
GLD-1 RNA inh	7	0	-1	-7	7	0	-4	7
GRK2 inh	0	0	1	20	2	0	4	1
Efflux pump inh	-0.2	-0.1	0.0	-0.1	0.1	-0.1	-0.3	-0.1
MEX-5 binding	-1.1	1.5	0.6	1.3	0.6	1.0	0.1	-0.2

Only part of the results is shown; the hit share may differ from the screen's.
